Bm FixLJ act: activators of Burkholderia fixLJ two-component system, primary screen, B. multivorans, GFP reporter; B. multivorans fixK-promoter GFP reporter, 18 h; hits give high values; actives 0.3% (n = 29,000); z-score (no concentration beside the values); AID 1918990, 2023;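 active = replicate mean overnight rise in green fluorescent reporter signal, 3 or more SD over negative controls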;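 also: score is relative to vehicle wells of the plate; 300 nL library stock went into each well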
Numbers without * were called inactive; & = joins results of further samples. Not all compounds are listed; the hit share may differ from the screen's.

no.	canonical_smiles	Bm FixLJ act
1	O=C(CCCc1cn[nH]c1)N1CCc2onc(-c3ccc(Cl)cc3)c2C1	-2.5
2	CN(C(=O)CCC(=O)N1CC(O)C(Cc2cnccn2)C1)C1CCCCC1 (stereo not drawn)	-0.53
3	CC(=O)N1CCc2cc(S(=O)(=O)NC(CC(C)C)C(=O)Nc3cc(C)cc(C)c3)ccc21 (stereo not drawn)	-0.44
4	CC(C)C1=NOC(C(=O)NCc2cccc(-n3cccn3)c2)C1 (stereo not drawn)	-0.88
5	Cc1ccc(OC(C)(C)C(=O)N2CC(O)C(CS(=O)(=O)N(C)C)C2)cc1 (stereo not drawn)	-1.6
6	Cc1cccc(NS(=O)(=O)c2ccc3nc(-c4ccccc4)[nH]c3c2)c1C	-0.06
7	O=C(CCn1c(=O)c2ccccc2n(Cc2ccc(Cl)cc2)c1=O)NCc1ccc2c(c1)OCO2	-0.57
8	CC(=O)OCC(=O)[C@@]1(O)CCC2C3CCC4=CC(=O)C=CC4(C)C3[C@@H](O)C[C@@]21C (stereo partly drawn)	-1.5
9	CN(C)c1ccc(NC(=O)CCSc2nc(-c3ccco3)cc(C(F)(F)F)n2)cc1	-0.73
10	Oc1ccccc1-c1nc(/C=C/c2ccc(F)cc2)no1	-0.61
11	O=C(CSc1nc(-c2ccc(F)cc2)nc2c1Cc1ccccc1O2)Nc1cccc(C(=O)O)c1	-1.2
12	N#C/C(=C\c1ccccc1)c1nc(-c2cc3c(ccc4ccccc43)oc2=O)cs1	0.99
13	COc1ccc(CCNC(=O)c2ccc(Cn3c(=O)c4ccccc4n(Cc4cccc(Cl)c4)c3=O)cc2)cc1OC	-1.3
14	Cc1[nH]c2c(C)ccc(C)c2c1CC(=O)N(C)CCc1cn[nH]c1	0.14
15	CCN1CCCC(C)(C(=O)NCCCc2nc3ccccc3n2C)C1 (stereo not drawn)	-0.03
16	CCOc1ccc2oc(=O)cc(CN3CCN(C(=O)c4ccc(Cl)cc4)CC3)c2c1	0.87
17	Cc1cc(NC(=O)CCc2nc3cccnc3n2-c2ccccc2)ccc1Br	-1.8
18	Cc1oc(-c2ccc(Cl)cc2)nc1CS(=O)CC(=O)NCc1ccc(Cl)cc1 (stereo not drawn)	-1.6
19	COc1ccc(-c2nc3cc(C)ccn3c2NC(=O)c2ccc(F)cc2)cc1	-0.55
20	CC1(C(=O)Nc2cccc(Br)c2)Cc2ccccc2C(=O)O1 (stereo not drawn)	0.57
21	Cn1ccnc1C(NC(=O)c1n[nH]c(=O)c2ccccc12)c1ccccc1 (stereo not drawn)	0.38
22	COc1ccc(CNC(=O)c2nc(SCc3ccccc3F)ncc2Cl)cc1	0.55
23	O=C(O)c1c(-c2ccccc2)oc2ccc(OCc3c(F)cccc3Cl)cc12	0.23
24	O=C(c1cccc(-c2cc(O)c(F)c(F)c2)c1)N1CCCC2(CCNC2)C1 (stereo not drawn)	-0.25
25	COc1cc2[nH]c(=O)n(CCC(=O)N3CCN(c4ccc(Cl)cc4)CC3)c(=O)c2cc1OC	0.22

Sorted by number of heavy atoms (falling): some entries from above
no.	canonical_smiles	Bm FixLJ act
13	COc1ccc(CCNC(=O)c2ccc(Cn3c(=O)c4ccccc4n(Cc4cccc(Cl)c4)c3=O)cc2)cc1OC	-1.3
9	CN(C)c1ccc(NC(=O)CCSc2nc(-c3ccco3)cc(C(F)(F)F)n2)cc1	-0.73
18	Cc1oc(-c2ccc(Cl)cc2)nc1CS(=O)CC(=O)NCc1ccc(Cl)cc1 (stereo not drawn)	-1.6
14	Cc1[nH]c2c(C)ccc(C)c2c1CC(=O)N(C)CCc1cn[nH]c1	0.14

(cont.)
no.	canonical_smiles	Bm FixLJ act
26	Cc1ccc2nc(-c3cc(NC(=O)/C=C/c4ccccc4)ccc3Cl)oc2c1	0.2
27	Cc1cccc2[nH]c(CCNC(=O)C=Cc3cnc(N(C)C)nc3)nc12	0.31
28	COc1ccc(OC)c(CNC(=O)CCc2c(C)nc3c(c2C)c(=O)n(C)c(=O)n3C)c1	-0.05
29	CCOC(=O)c1c(NC(=O)C(C)Sc2cn(CCNC(=O)c3c(F)cccc3F)c3ccccc23)sc2c1CCC2 (stereo not drawn)	0.28
30	CN1CCN(C2(CNC(=O)c3cccc(C#CC(C)(C)O)c3)CCCC2)CC1	0.47
31	CN(CCC(C)(C)O)C(=O)c1coc(COc2cccc(F)c2)n1	-2.8
32	CCN1CCCC(CN(C)C(=O)c2cccn3cnnc23)C1 (stereo not drawn)	-0.16
33	CCCOc1ccc(C(=O)Nc2ccc(NC(=O)c3ccccc3)c(Br)c2)cc1	-0.53
34	CC(NS(=O)(=O)c1ccc(NS(=O)(=O)N(C)C)cc1)C1=CCCCC1 (stereo not drawn)	-0.69
35	CCC(C)NC(=O)Cn1c(=O)n(-c2ccc(OC)c(OC)c2)c(=O)c2ccccc21 (stereo not drawn)	-0.74
36	CCCCC(CC)CNC(=O)C1CCN(S(=O)(=O)c2cccc3nsnc23)CC1 (stereo not drawn)	0.25
37	COCc1cc(C)nc2sc(C(=O)Nc3ccc(C(C)=O)cc3)c(N)c12	-1.4
38	CCCCCCOc1ccc(/C=C/C(=O)Nc2sc3c(c2C(=O)OC)CCC3)cc1OC	-1.1
39	Cc1ccc(CNc2nnc(C)c3nnn(Cc4ccc(F)cc4)c23)cc1	-1.5
40	CC(=O)c1ccc(NC(=O)Cn2cc3c(n2)CCCC3)cc1	-2.5
41	CCc1c(C)nc(SCC(=O)N2CCN(c3ccccc3OC)CC2)[nH]c1=O	-1.3
42	CCCC1=Nc2cc(C(=O)NC(C)c3ccccc3)ccc2Sc2ccc(C)cc21 (stereo not drawn)	-0.86
43	CC(C)CC(=O)n1nc(-c2ccco2)nc1NCc1ccc(Cl)cc1	-2.3
44	CC(=O)c1cccc(-n2c(=O)c3c4c(sc3n(CC(=O)c3ccc(Cl)cc3)c2=O)CN(C(C)=O)CC4)c1	0.12
45	COCCC(=O)N1CCC2(CC1)OCCc1c2[nH]c2ccccc12	0.9
46	CCc1ccc(C2c3c(oc4ccc(C)cc4c3=O)C(=O)N2c2nc(C)c(C)s2)cc1 (stereo not drawn)	0.71
47	O=C(NCc1ccc(F)cc1)c1ccc(CSc2nc3ccncc3n2Cc2ccc(F)cc2)cc1	-4
48	COc1cc(NC(=O)CC2C(=O)OCCN2Cc2ccccc2)cc(OC)c1 (stereo not drawn)	-0.12
49	CCOc1ccc(NC(=O)CCc2c(C)nc3nc(C)nn3c2C)cc1	-0.73
50	O=C(c1ccc2c(c1)N(Cc1ccc(Cl)cc1)C(=O)c1ccccc1S2(=O)=O)N1CCCC1	-1.2
51	Cc1ccc(C)c(NC(=O)Cn2c(=O)n(Cc3cccs3)c(=O)c3cccnc32)c1	-0.08
52	Cn1c2ccccc2c2cnn(CC(=O)NCCCN3CCN(c4ccccc4F)CC3)c(=O)c21	-1.7
53	CNC(=O)c1ccc(Nc2nnc(-c3ccc(C)c(S(=O)(=O)N4CCCCC4)c3)c3ccccc23)cc1	-3.2
54	O=C(CCCc1nc(-c2ccc(Cl)cc2)no1)NCc1ccco1	-1.8
55	O=C(NCCC1COc2ccccc2O1)c1cncc(=O)[nH]1 (stereo not drawn)	-0.03
56	COc1ccc2c(c1)CCCC2NC(=O)Cn1nc(C)cc1N (stereo not drawn)	-1.7
57	Cc1cccc(CCn2c(=O)c3ccccc3n(CC(=O)Nc3ccccc3F)c2=O)c1	-1.6
58	CCOc1ccc(N2C(=O)c3n[nH]c(-c4cccs4)c3C2c2cccc(F)c2)cc1 (stereo not drawn)	-0.03
59	CCOC(=O)CC(NC(=O)Cn1nnc(-c2ccc(C(F)(F)F)cc2)n1)c1ccccc1Cl (stereo not drawn)	-2.8
60	CCOC(=O)c1c(NC(=O)CSc2cn(CCNC(=O)c3ccc(OC)cc3)c3ccccc23)sc2c1CCC2	0.28
61	O=C(Cn1c(=O)nc(-c2ccccc2)c2ccccc21)NCCCc1ccccc1	-0.58
62	Cc1ccccc1C(=O)Nc1ccc(NC(=O)c2cccs2)cc1	-1.5
63	CSCCC(NC(C)=O)C(=O)N1CCN(c2cc(C)nc(N)n2)CC1 (stereo not drawn)	0.33
64	COCCCNC(=O)c1cn(CCOC)c(=O)c2c1c1ccccc1n2C	-1.2
65	O=C(NC1CCCCCC1)C1c2ccccc2C(=O)N1Cc1ccccc1Cl (stereo not drawn)	-2.4
66	CCCCC(CC)CNC(=O)c1ccc2c(=O)n(CCOC)c(=O)[nH]c2c1 (stereo not drawn)	-2.2
67	COC(=O)c1ccccc1NC(=O)c1nc(SCc2ccccc2C)ncc1Cl	0.61
68	COc1ccc(C(=O)NCC2CCCN(Cc3nnc(C)s3)C2)c(OC)n1 (stereo not drawn)	-3.5
69	O=C(NCc1noc(C2CC2)n1)c1cnc(Nc2ccccc2)nc1	0.79
70	COCCNC(=O)c1cccc(NC(=O)C2CCNCC2)c1C	0.61
71	CCc1ccc(CN2CCc3c(C(=O)NCc4ncccc4C)csc3C2)nc1	0.71
72	COc1cc2nc(SCc3ccc(F)cc3)n3nc(CCn4c(C)nc5ccccc54)nc3c2cc1OC	-0.06
73	CCN1CCN(c2cc3c(cc2F)c(=O)c(C(=O)O)cn3C2CC2)CC1	-4.8&-3.3
74	CN(C(=O)c1cccc2c3c([nH]c12)CCCC3)C1C[C@@H]2CNC(=O)C[C@H]2C1 (stereo partly drawn)	-0.86
75	CCOCCCNC(=O)C(Cc1ccccc1)NS(=O)(=O)c1ccc2c(c1)c(=O)n(C)c(=O)n2C (stereo not drawn)	-0.31

New compounds follow:
no.	canonical_smiles	Bm FixLJ act
76	Cc1cc(OCCn2cc(C(=O)c3cccs3)c3ccccc32)ccc1Cl	1.9
77	Cc1ccccc1NC(=O)c1c(C)oc2ccc(O)c(CN3CCC(C)CC3)c12	-0.67
78	COc1cccc(CNC(=O)C(Cc2ccccc2)NS(=O)(=O)c2ccc3c(c2)oc(=O)n3C)c1 (stereo not drawn)	-0.09
79	CC1CCN(c2nc3ccc(C(=O)N4CCN(c5ccccc5)CC4)cc3s2)CC1	1.5
80	CCc1nc2nc(C)cc(Nc3ccc(OC)cc3OC)n2n1	-1.1
81	Cc1ccc(S(=O)(=O)Nc2c(C)nc3nc(C)[nH]n3c2=O)c(C)c1	-0.17
82	COC(=O)c1cc2occc2n1Cc1nc(-c2cccc(Cl)c2)oc1C	-1.7
83	Cc1ccccc1-c1noc(CNC(C)CN2CCOCC2)n1 (stereo not drawn)	0.21
84	CCOc1ccc(C(=O)NC2COCC2Cc2ccncc2)cc1 (stereo not drawn)	-3.2
85	Cn1cc(C(=O)Nc2ccc(C#N)cc2)c2ccccc2c1=O	-1.4
86	Cc1ccc(O)c(NC(=O)c2nc3nc(C)cc(C(F)F)n3n2)c1	0.5
87	Cn1c(=O)cc(OCCCC(=O)Nc2ccc(F)cc2)c2ccccc21	-0.79
88	COc1ccc(C(=O)N(C)Cc2cc(C)[nH]n2)c(OCCN)c1	-1.2
89	Cc1ccc(CNC(=O)CCS(=O)(=O)c2cc(Br)cc3c2N(C(=O)C2CC2)CC3)cc1	1.1
90	Cc1nc(CC(=O)NCCc2nc3sc(C)c(C)c3c(=O)[nH]2)cs1	-0.29
91	COc1ccc(C2CC(=O)c3c([nH]c(C(=O)OC4CCC(C)CC4)c3C)C2)cc1OC (stereo not drawn)	0.02
92	CCC(=O)NCc1cc2n(n1)CCN(Cc1cc(C)ccc1C)C2	-1.5
93	CN(C)c1nc(-c2cccc(C(=O)NCCN3CCCC3=O)c2)nn1C	1.7
94	COc1ccc(C2CC(=O)N(Cc3ccc(F)cc3)c3ccccc3S2)cc1 (stereo not drawn)	0.22
95	CNC(=O)CCN1CCCC(C(=O)c2ccc(Oc3ccccc3)cc2)C1 (stereo not drawn)	-0.51
96	COc1ccc2[nH]c(C(=O)N3CC(O)C(Cc4cc(C)no4)C3)cc2c1 (stereo not drawn)	-1.4
97	O=C(Cc1ccc(O)c(Cl)c1)NCCCc1nc2ccc(F)cc2[nH]1	-1.6
98	Cc1c(CNC2CCCCCC2)c(C(=O)O)c(C)n1Cc1ccc(F)cc1	-1.5
99	CCCc1nc2nc(C)c(NS(=O)(=O)c3ccc(C)c(C)c3)c(=O)n2[nH]1	-0.7
100	CCOc1ccc(Nc2ncnc3onc(-c4ccc(Cl)cc4)c23)cc1	-0.89
101	Cc1ccc(CNS(=O)(=O)c2cc(Br)cc3c2N(C(=O)C2CC2)CC3)cc1	-1.9
102	COCCNC(=O)c1cc2c(Cl)nc3ccc(C)cc3c2s1	-1.6
103	Cc1oc(-c2ccccc2F)nc1Cn1c(SCc2ccccc2F)nc2ccncc21	-1
104	CCOc1ccc(-n2c(=O)c3c(C)c(C)sc3n(CC(=O)c3ccccc3)c2=O)cc1	3.2*
105	COc1ccccc1N1CCN(c2ncnc3onc(-c4cccc(Cl)c4)c23)CC1	0.6
106	Cc1nc2c(-c3ccc(F)cc3)c(C)nn2c(C)c1CCC(=O)NCc1ccc(Cl)cc1	-0.19
107	CN(C)CCC(c1ccc(Br)cc1)c1ccccn1 (stereo not drawn)	-0.54
108	Cc1ccc(C)c(N2CCN(C(=O)Cn3ncc4c(=O)oc5ccc(C)cc5c43)CC2)c1	-1.4
109	COc1cccc(-c2nc(CS(=O)(=O)CC(=O)NCCCN3CCN(C)CC3)c(C)o2)c1	-0.27
110	Cc1ccc(CNC(=O)CCc2c(C)nc3c(c(C)nn3-c3ccccc3)c2C)cc1	-1.5
111	CCC(=O)N1CCc2cc(S(=O)(=O)NC(CC(C)C)C(=O)Nc3ccc(CC)cc3)ccc21 (stereo not drawn)	-2.8

Gathered by group, the entries above with two or more sulfur atoms
no.	canonical_smiles	Bm FixLJ act
29	CCOC(=O)c1c(NC(=O)C(C)Sc2cn(CCNC(=O)c3c(F)cccc3F)c3ccccc23)sc2c1CCC2 (stereo not drawn)	0.28
34	CC(NS(=O)(=O)c1ccc(NS(=O)(=O)N(C)C)cc1)C1=CCCCC1 (stereo not drawn)	-0.69
36	CCCCC(CC)CNC(=O)C1CCN(S(=O)(=O)c2cccc3nsnc23)CC1 (stereo not drawn)	0.25
60	CCOC(=O)c1c(NC(=O)CSc2cn(CCNC(=O)c3ccc(OC)cc3)c3ccccc23)sc2c1CCC2	0.28
90	Cc1nc(CC(=O)NCCc2nc3sc(C)c(C)c3c(=O)[nH]2)cs1	-0.29

Screens (PubChem)
